Assay outcomes: PubChem, National Center for Advancing Translational Sciences (NCATS)
LASV entry inh: qHTS for Inhibitors of binding or entry into cells for Lassa Virus. Lassa virus pseudotype entry inhibition, cell reporter; control for the full effect not named in the record. Potency, µM (highest dose often 37.9 µM), inactives show at the highest dose activity change, negative = inhibition, usual class: inhibitors. 300,000 tested, 1.2% active; active means well fitted inhibition curve with a large enough effect; inconclusive means small, poorly fitted or top-dose-only effect, or effect the other way; inactive means flat fitted curve, though single readings scatter; tested in HEK293 cells; note: % is set by controls: 0 for no effect and ±100 for the full control effect; nearly all actives have a fitted effect of over 50% in size; luciferase read-out
NS1 function inh: qHTS Assay for Inhibitors of Influenza NS1 Protein Function | Potency, µM (titrated, usually from 46.1 µM), inactives show at the top dose activity, positive = more growth | S. cerevisiae slowed by influenza A NS1, growth recovery by OD600 | AID 2326, 2010 | 270,000 tested, 0.4% active; active means well fitted rising curve with a large enough effect; inconclusive means small, poorly fitted or top-dose-only effect; inactive means no such curve, though single readings can be large or run the other way; note: nearly all actives have a fitted effect of over 50% in size
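Read-out: OD600 growth recovery of NS1-expressing budding yeast. Cells grown overnight at 30C in -URA glucose medium, washed, resuspended and diluted 1:100 in 2% galactose assay medium, pH 6.0. Same strain lacking NS1 served as positive control.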
StopGo reporter: High Throughput Screening for Foot and Mouth Disease Virus Antivirals. 410,000 tested, 1.2% active. AID 1159524, 2015. human cells with a luciferase reporter of 2A StopGo recoding; control for the full effect not named in the record. Potency, µM (titrated, usually from 57.9 µM), inactives show at the top dose signal change, negative = less light; active = well fitted falling curve with a large enough effect; inconclusive = small, poorly fitted or top-dose-only effect; inactive = no such curve, though single readings can be large or run the other way; tested in HEK293T cells; note: % is set by controls: 0 for no effect and ±100 for the full control effect; nearly all actives have a fitted effect of over 45% in size; luciferase light after 4 h
Marburg entry inh: qHTS for inhibitors of binding or entry into cells for Marburg Virus | Marburg virus pseudotyped entry inhibition, cell reporter; control for the full effect not named in the record; about a third of the inactives were read at about 46 µM | Potency, µM (doses to about 37.8 µM), for the others: at the highest dose activity change, negative = inhibition, actives largely listed as inhibitors | 300,000 tested, 1.8% active | AID 540276, 2011; active = well fitted inhibition curve with a large enough effect; inconclusive = small, poorly fitted or top-dose-only effect, or effect the other way; inactive = flat fitted curve, though single readings scatter; tested in HEK293 cells; about a fifth of its hits are not listed in these tables; note: % is set by controls: 0 for no effect and ±100 for the full control effect; luciferase read-out
Cruzain inh noDet: qHTS Assay for Promiscuous and Specific Inhibitors of Cruzain (without detergent); 200,000 tested, 2.3% active; Potency, µM, for inactives: max response, negative = inhibition, usual class: inhibitors; AID 1476, 2009; purified cruzain, Z-FR-AMC fluorescence, no detergent;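 note: plate controls were enzyme without inhibitor for no effect and buffer without enzyme for full effect; nearly all actives have a fitted effect of over 40% in size; top concentration of the series not given in the record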
Target sequence (P25779 123-467 limits assumed): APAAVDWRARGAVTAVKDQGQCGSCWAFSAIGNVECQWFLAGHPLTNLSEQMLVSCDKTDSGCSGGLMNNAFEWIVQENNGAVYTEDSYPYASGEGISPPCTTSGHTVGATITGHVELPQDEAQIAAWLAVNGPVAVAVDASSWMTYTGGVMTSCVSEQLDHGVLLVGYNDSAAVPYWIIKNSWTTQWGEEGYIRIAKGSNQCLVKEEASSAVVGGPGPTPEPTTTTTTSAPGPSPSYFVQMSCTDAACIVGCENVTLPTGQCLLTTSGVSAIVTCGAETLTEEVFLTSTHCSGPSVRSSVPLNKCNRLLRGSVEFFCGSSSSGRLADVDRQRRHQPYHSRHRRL
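Detergent-free condition (0.00005% Triton X-100) in acetate buffer pH 5.5 with DTT. 1.5 nM enzyme and compound were pre-mixed 15 min, then 2 uM Z-FR-AMC substrate added; reaction progress from fluorescence change between first and third reads (60 s).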
SARS PLP yeast: qHTS of Yeast-based Assay for SARS-CoV PLP; S. cerevisiae expressing SARS-CoV PLpro, growth rescue; control for the full effect not named in the record; Potency, µM (doses to about 32.9 µM), for the others: at the top dose activity, positive = growth rescue; 330,000 tested, 0.19% active; AID 485353, 2010; active means well fitted rising curve with a large enough effect; inconclusive means small, poorly fitted or top-dose-only effect; inactive means no such curve, though single readings can be large or run the other way; note: 0% is about no effect; nearly all actives have a fitted effect of over 55% in size; growth read by luminescence after 48 h
RE007 growth inh: qHTS Assay for Inhibitors of the HIV-1 protein Vpr; S. pombe RE007 Vpr strain, BacTiter-Glo ATP luminescence, 24 h; control for the full effect not named in the record; Potency, µM (titrated, usually from 92.2 µM), without a hit: at the highest dose activity change, negative = less growth; 360,000 tested, 0.21% active; AID 651644, 2012; active = well fitted falling curve with a large enough effect; inconclusive = small, poorly fitted or top-dose-only effect; inactive = no such curve, though single readings can be large or run the other way;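 note: % is set by controls: 0 for no effect and ±100 for the full control effect; nearly all actives have a fitted effect of over 50% in size; the assay follows cell death caused by Vpr and the record does not say whether a fall means rescue or toxicity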
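Fission yeast RE007 carrying one integrated HIV-1 vpr copy, seeded at OD 0.01 in PMG+AL medium with 23 nL pinned compound. Grown 24 h at 30 degrees; viability read by BacTiter-Glo luminescence after 5 min.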
Cruzain inh Det: qHTS Assay for Promiscuous and Specific Inhibitors of Cruzain (with detergent). Cruzipain (Trypanosoma cruzi), P25779. purified cruzain, Z-FR-AMC fluorescence, 0.01% Triton. Potency, µM, inactives show max response, negative = inhibition, usual class: inhibitors. 200,000 tested, 0.43% active. AID 1478, 2009;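 note: plate controls were neutral wells for no effect and buffer without enzyme for full effect; nearly all actives have a fitted effect of over 40% in size; top concentration of the series not given in the record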
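Cruzain (1.5 nM) preincubated 15 min at RT with compound in 100 mM sodium acetate pH 5.5, 5 mM DTT, 0.01% Triton X-100. Reaction started with 2 uM Z-FR-AMC; AMC fluorescence (ex 360/em 450 nm) change over 60 s gave rate.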
* marks the source's active call; other numbers are inactive results; ? = inconclusive; . = no result given; & = joins results of further samples; [ ] = remark or other dose. Unless noted, calls come from the whole dose curve; as a rule, active = well fitted curve in the direction sought with a large enough effect; inconclusive = small, poorly fitted or top-dose-only effect, or another doubt; inactive = no such curve, though single readings can be large; an effect the other way counts as inactive or inconclusive. Potency is the fitted concentration of half-maximal effect.

SMILES	LASV entry inh	NS1 function inh	StopGo reporter	Marburg entry inh	Cruzain inh noDet	SARS PLP yeast	RE007 growth inh	Cruzain inh Det
C[C@@H](C(=O)NCc1ccccn1)[C@H]1C[C@]1(C)[C@H](NC(=O)OCc1ccccc1)c1ccccc1	?	-21%	-29%	?	20%&3%	-5%	-8%	-3.3%&-2.9%
CCCNC(=O)N1CCN(S(=O)(=O)c2ccc3c(ccn3C)c2)CC1	5%[46.1 µM]	.	2%	.	-5%	.	.	0.1%
CCOC(=O)c1oc2cccc(O)c2c1CN1CCOCC1	1%	-3%	-28%	3%	3%	-21%	6%	-0.5%
Cn1c(=O)n(C/C=C/c2ccccc2)c(=O)c2c1nc1n2CCCN1c1ccc(F)cc1	?	3%	?	?	-3%	0%	20%	-7.1%
CCOc1ccccc1CNC(=O)CCc1c(C)nn(-c2ccc(N3CCCC3)nn2)c1C	-15%[46.1 µM]	.	-6%	.	-9%	.	.	-2.5%
CCn1cc(C(=O)N2CCN(c3cccc(C)c3C)CC2)c2cc(OC)c(OC)cc2c1=O	-7%[46.1 µM]	.	0%	15%[46.1 µM]	-4%	.	.	3.2%
CN(C)CCN(C)Cc1ccc2c(c1)Cc1ccccc1-2	.	7%	.	-1%	4%	-1%	.	-1.2%
CCC(C)[C@H](NS(=O)(=O)c1ccc(C)cc1)C(=O)N1CCC(C(=O)N2CCC(C(=O)OC)CC2)CC1 (stereo not given in full)	.	-22%	0%	.	.	6%	0%	.
CC(C)[C@@H](N)C(=O)NCC1CCC(C(=O)N[C@@H](Cc2ccccc2)C(=O)O)CC1 (stereo not given in full)	1%	-1%	4%	?	.	0%	0%	.
Cc1ccc(OCCNC(=O)CNC(=O)c2ccc(C)c(C)c2)cc1	-2%	.	-11%	0%	.	7%	-1%	.
Cc1nnc(NC2(C(F)(F)F)C(=O)Nc3c2c(=O)n(C)c(=O)n3C)s1 (stereo not given)	1%	?	-14%	8%[46.1 µM]	9%	5%	26%	3.0%
O=c1[nH]c(C(Cl)Cl)nc2sc3c(c12)CCN(Cc1ccccc1)C3	?	27%	6%	-15%	?	15%	3%	-10%
COC(=O)c1cc(OC)c(OC)cc1NC(=S)Nc1cccc(C(C)=O)c1	10%	?	-3%	-1%	-10%	-8%	-1%	-2.3%
COc1ccc2nc(NC(=O)c3ccc([N+](=O)[O-])o3)sc2c1	?	-6%	-1%	-1%	.	-17%	-8%	.
CCCCN(CC)CCNC(=O)c1nn(-c2ccc(OC)cc2)c(=O)c2c1c1ccccc1n2C	?	.	-22%&-18%	?	-3%	2%	16%	-3.0%
COc1ccc(C2C(C#N)=C(C)NC3=C2S(=O)(=O)c2ccccc23)cc1 (stereo not given)	-20%	7%	-14%	-22%	-3%	-12%	6%	-11%
Cn1c(=O)c(C(=O)NCCCc2ccccc2)c(O)c2ccccc21	.	15%	15%	.	.	1%	-10%	.
COCCN1C=C(C(=O)OC)C(c2ccc(Cl)cc2)C(C(=O)OC)=C1	-23%	-1%	25%	?	.	-2%	0%	.
COc1ccc(OC)c(NC(=O)c2oc3ccccc3c2NC(=O)C2CC2)c1	.	10%	-14%	.	.	-3%	18%	.
COc1ccc(C(=O)Nc2ccnn2C2CCN(Cc3cnn(C)c3)CC2)cc1	.	?	-6%	.	.	5%	10%	.
COc1ccc(Oc2nc(-c3ccccn3)ncc2OC)cc1	?	.	-6%	2%[46.1 µM]	.	11%	-10%	.
COC(=O)c1sc(NC(=O)COc2ccc(C)cc2)nc1C	-33%	-18%	14%	1%	12%	-12%	-23%	-4.7%
O=S(=O)(c1ccccc1Cl)N1CCCC1c1nc(-c2ccc(Cl)cc2)no1 (stereo not given)	?	4%	?	?	2%	-1%	22%	1.5%
NS(=O)(=O)c1ccccc1NC(=S)Nc1ccccc1S(N)(=O)=O	.	4%	1%	.	.	-1%	-6%	.
O=C(CC1CCCC1)Nc1cccc(Br)c1	-22%[46.1 µM]	-37%	26%	?	.	-8%	-13%	.
CCOC(=O)c1c(NC(=O)CC)sc(C(=O)NC2CCCC2)c1C	-1%	14%	10%	-18%[46.1 µM]	.	-6%	-9%	.
Cc1ccc(CCNC(=O)C(NS(=O)(=O)c2ccc3c(c2)oc(=O)n3C)C(C)C)cc1 (stereo not given)	19%[46.1 µM]	.	9%	?	-12%	.	.	-0.8%
O=S(=O)(c1cccs1)N1CN(Cc2ccc(Cl)cc2)c2nc3ccccc3nc21	9%	-3%	8%	14%	?	4%	24%	-1.7%
Cc1c(C(=O)N(Cc2cccc(Cl)c2)Cc2ccco2)oc2ccccc12	-2%[46.1 µM]	.	-6%	4%[46.1 µM]	-28%	.	.	-8.7%
COc1ccc2cc(C(=O)NCC(=O)O)sc(=O)c2c1OC	11%	15%	-10%	?	-18%	?	29%	-5.4%
CN(N)c1nc(-c2ccccc2)nnc1C(F)(F)F	14%	19%	0%	-5%	7%	-11%	-10%	0.6%
O=[N+]([O-])c1ccc(CS(=O)(=O)N2CCN(c3ccccc3)CC2)cc1	18%[46.1 µM]	-4%	-2%	2%[46.1 µM]	.	-1%	9%	.
O=C(COc1ccccc1F)Nc1nnc(S(=O)(=O)N2CCCCCC2)s1	15%[46.1 µM]	.	-17%	.	10%	.	.	-1.6%
O=C(c1ccco1)N1CCN(Cc2cccc3ccccc23)CC1	10µM*	-3%	-8%	5µM*	.	-4%	-8%	.
COc1ccc(/C(=N\O)c2nccc3cc(OC)c(OC)cc23)cc1OC	-15%[46.1 µM]	.	-2%	-4%[46.1 µM]	.	-1%	-22%	.
Cc1csc(NC(=O)c2ccc(Cn3nc(C)c(Br)c3C)o2)n1	11µM*	-23%	22µM*	?	.	-8%	11%	.
COc1ccccc1CNC(=O)C1CCN(C(=O)c2sccc2-n2cccc2)CC1	.	-5%	5%&3%	-26%&-26%[46.1 µM]	11%	0%	-2%	-2.7%
O=S(=O)(NCCOCC(F)(F)C(F)F)c1ccc2oc3ccccc3c2c1	-4%	-48%	-13%	-18%[46.1 µM]	1%	-12%	-17%	-9.5%
Cn1c(CN2CCCC2)nc2cc(NC(=O)c3ccco3)ccc21	18%	3%	.	17%	-10%	-1%	-11%	-1.1%
CCOc1ccc(OCCC(=O)N(CC)CC(=O)Nc2c(F)cccc2F)cc1	-4%	.	22%	29%	.	10%	3%	.
COc1cc2[nH]c(=S)n(C3CCN(Cc4ccccc4)CC3)c(=O)c2cc1OC	26%	.	1%	1%[46.1 µM]	.	2%	-11%	.
COc1ccc(C(=O)Oc2ccc(Br)cc2C(=S)N2CCOCC2)cc1	-11%	-33%	12%	4%[46.1 µM]	.	-5%	4%	.
CC1CC(C)CN(S(=O)(=O)N2CCC(C(=O)NCc3ccco3)CC2)C1 (stereo not given)	-17%	.	-16%	-2%	.	0%	1%	.
O=C(Nc1ccccc1Oc1cccnc1)C1CCCN(Cc2ccc(F)cc2)C1 (stereo not given)	.	?	-17%	.	.	3%	-18%	.
CN1C(=S)SC(/[N+]([O-])=C\c2ccccc2F)C1(C)C (stereo not given)	.	5%	-10%	.	.	-5%	-3%	.
O=C(CSc1nc(=O)n(CCN2CCOCC2)c2c1CCC2)Nc1cccc(Cl)c1	6%[46.1 µM]	.	0%	.	-9%	.	.	-0.4%
O=c1c2ccccc2nc(/C=C/c2ccc3c(c2)OCO3)n1-c1cccc(O)c1	?	20%	-22%	2%	-5%	1%	8%	-3.3%
CCc1noc(C)c1C(=O)N(C)CC(=O)Nc1ccc(Cl)c(Cl)c1	-2%	.	-14%	-26%	.	-2%	-13%	.

Reprinted at random: 3 records from the list
SMILES	LASV entry inh	NS1 function inh	StopGo reporter	Marburg entry inh	Cruzain inh noDet	SARS PLP yeast	RE007 growth inh	Cruzain inh Det
COc1ccc(C(=O)Oc2ccc(Br)cc2C(=S)N2CCOCC2)cc1	-11%	-33%	12%	4%[46.1 µM]	.	-5%	4%	.
CCc1noc(C)c1C(=O)N(C)CC(=O)Nc1ccc(Cl)c(Cl)c1	-2%	.	-14%	-26%	.	-2%	-13%	.
O=S(=O)(NCCOCC(F)(F)C(F)F)c1ccc2oc3ccccc3c2c1	-4%	-48%	-13%	-18%[46.1 µM]	1%	-12%	-17%	-9.5%

Among those listed so far, 7 have a Cl atom.
SMILES	LASV entry inh	NS1 function inh	StopGo reporter	Marburg entry inh	Cruzain inh noDet	SARS PLP yeast	RE007 growth inh	Cruzain inh Det
O=c1[nH]c(C(Cl)Cl)nc2sc3c(c12)CCN(Cc1ccccc1)C3	?	27%	6%	-15%	?	15%	3%	-10%
COCCN1C=C(C(=O)OC)C(c2ccc(Cl)cc2)C(C(=O)OC)=C1	-23%	-1%	25%	?	.	-2%	0%	.
O=S(=O)(c1ccccc1Cl)N1CCCC1c1nc(-c2ccc(Cl)cc2)no1 (stereo not given)	?	4%	?	?	2%	-1%	22%	1.5%
O=S(=O)(c1cccs1)N1CN(Cc2ccc(Cl)cc2)c2nc3ccccc3nc21	9%	-3%	8%	14%	?	4%	24%	-1.7%
Cc1c(C(=O)N(Cc2cccc(Cl)c2)Cc2ccco2)oc2ccccc12	-2%[46.1 µM]	.	-6%	4%[46.1 µM]	-28%	.	.	-8.7%
O=C(CSc1nc(=O)n(CCN2CCOCC2)c2c1CCC2)Nc1cccc(Cl)c1	6%[46.1 µM]	.	0%	.	-9%	.	.	-0.4%
CCc1noc(C)c1C(=O)N(C)CC(=O)Nc1ccc(Cl)c(Cl)c1	-2%	.	-14%	-26%	.	-2%	-13%	.
